Screening results: PubChem BioAssay, National Center for Advancing Translational Sciences (NCATS)
Six1-Eya2 inh = inhibitors of human Six1/Eya2 interaction. AlphaScreen GST-Six1/His-Eya2 binding, biochemical; stronger effect = lower value; control for the full effect not named in the record. activity change, % (concentration not given with the values). Q15475+O00167. AID 651725. actives 0.56% (n = 360,000); in the data active = activity change below about -65%; inconclusive = about -30% to -65%; inactive = above about -30%; further: on the % scale 0 is the no-effect control and ±100 the full control effect
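GST-Six1 + His-Eya2 (5X stock: 250/500 nM); Tris pH 8.0, 300 mM NaCl, 0.05% BSA, 0.02% Tween 20; GSH donor/Ni acceptor beads; 1 h 37 °C dark; AlphaScreen readout.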
TRPML1 agonist = activates the human TRPML1 channel; Q9GZU1; TRPML1-expressing cells, Ca2+ dye fluorescence, FDSS; host cell line not named in the record; reference of the full effect not given here; activation, % (test concentration not listed); actives 0.12% (n = 410,000); in the data active = activation above about 50%; inconclusive = about 30% to 50%; inactive = below about 30%; further: 0% is about no effect; the text of the record puts the active cut at 80%
Target sequence (Q9GZU1 whole entry, looked up): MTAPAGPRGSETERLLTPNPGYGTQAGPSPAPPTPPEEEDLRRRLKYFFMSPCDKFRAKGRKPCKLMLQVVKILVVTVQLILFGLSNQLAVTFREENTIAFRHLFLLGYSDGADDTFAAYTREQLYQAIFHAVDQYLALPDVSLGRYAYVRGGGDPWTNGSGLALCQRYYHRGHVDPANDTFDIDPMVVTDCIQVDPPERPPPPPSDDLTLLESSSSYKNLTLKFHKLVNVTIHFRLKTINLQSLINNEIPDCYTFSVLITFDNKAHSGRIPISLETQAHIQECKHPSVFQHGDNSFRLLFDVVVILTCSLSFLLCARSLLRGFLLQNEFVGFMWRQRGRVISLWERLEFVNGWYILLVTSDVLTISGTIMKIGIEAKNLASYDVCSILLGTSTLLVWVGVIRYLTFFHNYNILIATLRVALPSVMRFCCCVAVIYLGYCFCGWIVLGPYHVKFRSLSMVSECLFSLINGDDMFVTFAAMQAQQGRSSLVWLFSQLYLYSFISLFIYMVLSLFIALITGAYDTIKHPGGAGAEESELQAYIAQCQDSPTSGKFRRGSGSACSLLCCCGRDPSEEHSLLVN
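Calcium fluorescence on an FDSS kinetic reader gave the read-out. Tet-induced TRPML1-DL cells were plated overnight, dye-loaded (Ca8 with quencher, 45-90 min, room temperature, dark), then read 110 s after compound addition, and again 110 s after 4uM final 54-4 (EC80).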
CtBP-E1A inh = inhibitors of CtBP/E1A interaction; AlphaScreen GST-E1A/His-CtBP binding, 1536-well; stronger effect = lower value; control for the full effect not named in the record; activity change, % (no concentration beside the values); actives 0.49% (n = 340,000); AID 651724; in the data active means activity change below about -65%; inconclusive means about -30% to -65%; inactive means above about -30%; further: on the % scale 0 is the no-effect control and ±100 the full control effect; compound concentration not given in the record
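In 5 uL wells, 23 nL compound meets equimolar GST-E1A and His-CtBP (5X stock 125 nM each) for 2 h, 37 °C. Beads (5X, 50 ug/mL) then 1 h, 37 °C, dark.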
D2 ag = human D2 receptor agonism in beta-arrestin assay; P14416; DiscoveRx PathHunter D2 beta-arrestin, luminescence, 90 min; 100% = 57 uM dopamine signal; activation, % (concentration not given with the values); actives 0.084% (n = 360,000); AID 624465; in the data active = activation above about 40%; inconclusive = about 15% to 40%; inactive = below about 15%; further: compound concentration not given in the record; the text of the record calls up to 30% inactive
Target sequence (P14416 whole entry, looked up): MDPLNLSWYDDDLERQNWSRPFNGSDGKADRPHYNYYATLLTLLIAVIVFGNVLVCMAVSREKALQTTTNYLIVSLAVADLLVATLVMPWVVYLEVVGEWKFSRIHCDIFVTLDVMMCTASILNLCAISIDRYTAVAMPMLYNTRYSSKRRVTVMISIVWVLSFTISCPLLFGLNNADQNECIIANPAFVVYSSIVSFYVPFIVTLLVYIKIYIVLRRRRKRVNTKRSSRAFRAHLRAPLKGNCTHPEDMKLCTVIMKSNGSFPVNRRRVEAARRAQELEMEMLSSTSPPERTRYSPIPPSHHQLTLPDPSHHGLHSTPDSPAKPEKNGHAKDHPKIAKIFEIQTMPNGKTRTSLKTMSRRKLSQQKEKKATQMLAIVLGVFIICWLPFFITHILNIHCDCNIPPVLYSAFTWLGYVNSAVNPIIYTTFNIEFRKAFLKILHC
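DiscoveRx PathHunter D2 beta-arrestin cells (2,100/well) attached overnight, then compound-stimulated 90 min at 37 C in HBSS/10 mM HEPES/0.1% Tween-20 buffer; beta-galactosidase complementation read by luminescence after 1 h at ambient temperature. Dopamine 57 uM final (EC100) as control.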
D2 potentiator = positive allosteric modulators of human D2 dopamine receptor | potentiation, % (no concentration beside the values) | AID 624464 | DiscoveRx D2 beta-arrestin cells, luminescence, 90 min; 100% = 57 uM dopamine signal | P14416 | actives 0.23% (n = 360,000); active = potentiation of 50% or more; inconclusive = 30% to 50%; inactive = 30% or less;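 further: compound concentration not given in the record; tested on top of an EC20 dose of dopamine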
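PathHunter D2 cells, attached overnight at 37 deg C, received compound in DMSO plus dopamine at EC20 (50 nM final) for 90 min at 37 deg C. Beta-arrestin recruitment was read as luminescence after 1 h with detection reagent at ambient temperature.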
PINK1 modulator = PINK1 expression modulation; Potency, µM (highest dose often 76.6 µM), without a hit: at the highest dose activation (PINK1 increase), usual class: activators; AID 624263; actives 0.2% (n = 410,000); PINK1 immunofluorescence, high-content cytometry, 24 h; active = well fitted activation curve with a large enough effect; inconclusive = small, poorly fitted or top-dose-only effect; inactive = flat fitted curve, though single readings scatter; cell line not stated here;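 further: potency means the concentration at half of the fitted maximal effect; % of control where 0% means no effect; nearly all actives have a fitted effect of over 65% in size; a mitochondrial uncoupler was the plate control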
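Fluorescence from anti-PINK1 antibody, together with nuclear and cell stains, was scanned on a laser-scanning cytometer. Before staining, stable-line cells were incubated 24 hours with compounds at 5 concentrations; primary antibody 12 h at 10 degrees C.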
Starred values were filed as active, the others as inactive; ? = inconclusive; / = no result given; [ ] = dose if it differs, or a comment.

SMILES	Six1-Eya2 inh	TRPML1 agonist	CtBP-E1A inh	D2 ag	D2 potentiator	PINK1 modulator
CC(=NNc1nc2ccccc2s1)c1ccncn1	?	0.6	-78*	-4.5	-21	0.1%
COc1cc(C(=S)N2CCCC2)cc(Cl)c1OCC(=O)Nc1ccc(C)cc1C	-20	-0.3	-9	-6.1	-8	-0.2%
CC(=O)n1cc(/C=C2/N=C(c3ccccc3)OC2=O)c2ccccc21	0	0.3	8	0.1	-13	-1.2%
COc1ccc(Cn2nnc3ccccc32)cc1	-1	-0.8	5	-3.4	-9	2.0%
CC(C)(C)NC(=S)NCc1ccncc1	3	-0.1	11	5.6	6	0.1%
CCOc1ccc(OCCC(=O)N2CCc3cc(OC)c(OC)cc3C2)cc1	-4	1.9	-3	8.6	4	0.8%
COCOCCn1cc(CN2CCS(=O)(=O)N(Cc3ccc(-c4cccc(CO)c4)cc3)C(CC(C)C)C2=O)nn1 (stereo unspecified)	6	-0.2	1	-3.1	5	1.6%
Cc1c(C=NCCOCc2ccccc2)cnn1C	2	1.3	0	-4.2	-3	0.2%
CC1(C)CC(O)CC(C)(C)N1CC(O)COCCOc1ccc(Br)cc1 (stereo unspecified)	3	0.4	-5	-1.4	-1	2.8%
Cc1ccc(OCc2ccc(C(=O)Nc3cc(C)on3)o2)c([N+](=O)[O-])c1	-8	-0.7	-26	-0.7	-4	3.7%
NS(=O)(=O)c1cccc(NC(=S)NCc2ccc3c(c2)OCO3)c1	7	1.3	-13	-3.9	-4	0.5%
CCc1ccccc1NC(=O)CCC(=O)c1cccs1	7	0.2	-4	-7.1	-11	-0.9%
COC(=O)C1=C(C)N(CCCC(=O)O)C(=O)NC1c1ccc([N+](=O)[O-])cc1 (stereo unspecified)	0	0.1	/	-2.6	-3	0.6%
CCCCN(CC)C(=O)c1oc2ccc(S(=O)(=O)N3CCCC3)cc2c1C	-1	0.9	5	1.7	11	0.5%
COc1ccc(N(C(=O)/C=C/c2ccccc2)C2=CC3CCC(C2)N3C)cc1 (stereo unspecified)	1	0.2	0	-0.5	-9	0.3%
COC(=O)c1sccc1NC(=O)Nc1cccc(OC)c1	-19	2.7	-29	-3.6	-1	-0.4%
Nc1cccc(C2=Nc3cccc4cccc(c34)N2)c1	-3	-0.3	7	0.7	10	1.2%
COc1ccccc1N1C(=O)CC(N2CCc3ccccc32)C1=O (stereo unspecified)	-7	0.4	-11	0.2	-2	-2.7%
COc1ccc(-n2cnc3scc(-c4ccc(OC)c(OC)c4)c3c2=O)cc1	0	1.2	/	-5.3	-9	0.6%
O=C(c1ccc(OC2CCN(C/C=C/c3ccc(F)cc3)CC2)cc1)N1CCCCC1	-5	0.1	-4	-4.1	-35	0.0%
Cc1ccc(NC(=O)COCC(=O)Nc2ccc(C)cc2)cc1	22	-0.3	/	-2.0	-36	0.9%
N#CC1=C(SCc2ccccc2)NC(=O)CC1c1ccccc1 (stereo unspecified)	-1	1.3	-7	-1.7	1	0.5%
COc1ccccc1/C=C/C=c1\sc2nc(=O)c(Cc3ccccc3)nn2c1=O	-30	-0.4	-8	0.0	2	3.7%
CCc1nc2ccc(C(=O)N3CCCCC3)cn2c1N(C)CCCc1ccccc1	1	-0.9	2	-3.5	-5	2.0%
CCOc1cc(/C=N/NC(=O)COc2ccc(Cl)cc2)ccc1OS(=O)(=O)c1ccccc1	3	3.7	-4	2.1	-18	2.6%

The list goes on:
SMILES	Six1-Eya2 inh	TRPML1 agonist	CtBP-E1A inh	D2 ag	D2 potentiator	PINK1 modulator
COc1ccccc1C1CC(c2ccc(NS(C)(=O)=O)cc2)=NN1C(=O)c1ccccc1 (stereo unspecified)	0	1.4	/	-0.9	-6	-1.9%
COc1cccc(C(=O)CSc2nnnn2C)c1	0	-0.2	0	-3.2	0	-0.3%
Cc1cc(C)nc(NS(=O)(=O)c2ccc(Br)s2)c1	6	0.1	-2	-4.5	-2	0.7%
O=C(COC(=O)/C=C/c1ccc(Cl)cc1)NC1CCCCCC1	-2	-0.4	10	-5.6	-4	0.4%
COc1cccc(/C=N/Nc2ncnc3scc(-c4ccccc4)c23)c1OC	8	2.5	0	1.6	14	?
C(=C\c1ccccc1)/CSc1nnc(-c2ccccn2)n1Cc1ccco1	?	5.7	-27	-1.8	1	0.9%
CCN(CC(=O)Nc1ccc(OC)cc1)C(=O)c1ccc(NS(=O)(=O)c2ccc(C(C)=O)cc2)cc1	1	1.9	-24	1.2	-12	0.2%
COc1ccc(C)cc1Nc1n[n+](-c2ccccc2)c(-c2c(Cl)cccc2Cl)s1	?	2.2	?	-9.8	-29	?
CCc1cccc(CC)c1NC(=O)COC(=O)CC1c2ccccc2CCN1S(=O)(=O)c1ccccc1 (stereo unspecified)	4	1.8	5	0.6	2	-0.4%
COc1ccc2c(c1)N(S(=O)(=O)c1ccccc1)CCC2=O	0	0.8	5	-3.0	-21	3.8%
CC(C)CNC(=O)c1nn(Cc2ccccc2)c(=O)c2ccccc12	5	5.4	5	4.5	2	2.1%
Cc1cc(C)nc(SCc2cc(=O)c(OC(=O)c3ccc(S(=O)(=O)N(C)C)cc3)co2)n1	-2	-1.5	-4	-6.1	-4	5.6%
CCOC(=O)c1ccc(S(=O)(=O)Nc2cc(S(=O)(=O)Nc3ccc(OC)cc3)ccc2O)cc1	-6	0.0	7	1.6	-21	-1.3%
Cc1nn(C)c(Cl)c1CN1CCCC(CCC(=O)NCc2ccccc2F)C1 (stereo unspecified)	6	-0.1	18	0.0	-13	-0.1%
CCOc1ccccc1N(CC(=O)NC1CCCCC1)S(=O)(=O)c1ccc(C)cc1	0	9.6	7	0.8	-8	6.2%
Cc1cccnc1NC(=O)CNC(=O)c1cccs1	9	-0.4	6	2.5	17	11%
CCC(COC)Oc1cc(NCc2ccccc2)c2ncn(C(C)C)c2c1 (stereo unspecified)	-23	0.7	?	65*	2	?
O=C(C1=C[C@@H](c2coc3ccccc3c2=O)C[C@@H](OCCCCO)O1)N1CCN(Cc2ccc3c(c2)OCO3)CC1	-4	-1.0	-8	0.7	-7	-0.6%
CCOc1ccc(/C=N/NC(=O)c2ccc(O)cc2)cc1CN1CC2CC(C1)c1cccc(=O)n1C2 (stereo unspecified)	-7	-0.7	?	4.0	-2	1.4%
Cc1cccc(C(=O)NCC(=O)N2CCOCC2)c1	7	0.1	15	8.0	3	-1.1%
CCOC(=O)[C@]12CCCC=C1N(Cc1cccc3ccccc13)C(=O)[C@H](CC(=O)N1CCCC1)C2	0	-0.5	-7	/	/	0.6%
C=CCOc1ccccc1CN1CCC(Cc2ccccc2)CC1	-4	0.6	-1	-3.0	-15	7.2%
O=C(CN(C(=O)c1csnn1)c1ccc(F)c(Cl)c1)NCc1ccc2c(c1)OCO2	-5	-0.1	3	-2.1	-3	-0.1%
O=S(=O)(c1ccc(F)cc1)N1CCN(CC2CC3C=CC2C3)CC1 (stereo unspecified)	-2	-0.9	8	-2.1	-14	0.2%
O=C(COC(=O)c1cc(NS(=O)(=O)c2cccs2)ccc1O)Nc1ccc(F)c(F)c1F	2	-0.8	-3	3.5	7	1.6%

Complete entries as entered above.
`COc1ccccc1/C=C/C=c1\sc2nc(=O)c(Cc3ccccc3)nn2c1=O` is listed as Six1-Eya2 inh = -30; TRPML1 agonist = -0.4; CtBP-E1A inh = -8; D2 ag = 0.0; D2 potentiator = 2; PINK1 modulator = 3.7%
`C(=C\c1ccccc1)/CSc1nnc(-c2ccccn2)n1Cc1ccco1` is listed as Six1-Eya2 inh = ?; TRPML1 agonist = 5.7; CtBP-E1A inh = -27; D2 ag = -1.8; D2 potentiator = 1; PINK1 modulator = 0.9%

Next entries.
SMILES	Six1-Eya2 inh	TRPML1 agonist	CtBP-E1A inh	D2 ag	D2 potentiator	PINK1 modulator
CC1CC(C)CN(S(=O)(=O)N2CCCC(C(=O)NC3CCCCC3)C2)C1 (stereo unspecified)	3	-0.3	1	-3.7	-5	0.3%
COc1ccc(S(=O)(=O)N2CCOCC2)cc1NC(=O)c1cccc2c(=O)c(C)c(-c3ccccc3)oc12	-8	1.4	6	-3.1	5	?
COc1ccccc1NC(=O)c1ccc(NC(=O)COC(=O)C2CC2C)cc1 (stereo unspecified)	6	-0.8	7	-5.7	0	-1.1%
COc1ccc(-c2csc(COC(=O)C(C)(C)C)n2)cc1	26	-0.2	22	-2.6	-13	1.8%
Cc1ccc(OCC(=O)NC2CC(C)(C)NC(C)(C)C2)c(C)c1	-4	-0.2	-5	0.7	-11	1.1%
COc1ccc(N2CCN(C(=O)CSc3nnc(-c4cc5ccccc5cc4O)n3C)CC2)cc1	?	0.1	?	-0.3	3	0.2%[38.3 µM]
CCCNC(=O)C1(C)CCN(C(=O)c2ccc3c(c2)CCO3)C1 (stereo unspecified)	2	0.1	1	4.8	-3	0.9%
CCCN(CC(=O)Nc1ccc(Cl)cc1Cl)C(=O)/C=C/c1ccco1	2	2.4	0	1.0	-17	-0.4%
CC[C@@]1(C(=O)OC)N[C@H](CN(C)C(=O)NC(C)C)[C@@H]2C(=O)N(Cc3ccccc3)C(=O)[C@@H]21	-1	-0.8	7	-1.4	-2	1.5%
C#CCOCCOCCOCCNc1nc(N2CCN(C(=O)[C@H]([C@@H](C)O)n3cc(CCCCN)nn3)CC2)nc(N2CCN(C(=O)[C@H](CCCCN)n3cc(CC(C)O)nn3)CC2)n1 (stereo partly specified)	0	-0.3	4	-3.3	-6	0.4%
Cc1cccc(-n2c(C)cc(/C=N/NC(N)=S)c2C)c1	-10	-0.7	-6	-10	-16	8.2%
Cc1cc(C)n2c(SCC(=O)NC3CCCCC3)nnc2n1	-3	-0.4	/	1.2	-6	-1.3%
CCN(C(=O)CN1C(=S)NC(C)(C)CC1C)c1ccc(C)c(C)c1 (stereo unspecified)	0	-0.6	5	-2.3	2	-0.4%
COc1ccc(-c2noc(-c3cccs3)n2)cc1OC	-8	0.6	-9	-2.0	9	1.9%

Structures from the list above that contain a thiophene ring, fused or not:
SMILES	Six1-Eya2 inh	TRPML1 agonist	CtBP-E1A inh	D2 ag	D2 potentiator	PINK1 modulator
CCc1ccccc1NC(=O)CCC(=O)c1cccs1	7	0.2	-4	-7.1	-11	-0.9%
COC(=O)c1sccc1NC(=O)Nc1cccc(OC)c1	-19	2.7	-29	-3.6	-1	-0.4%
COc1ccc(-n2cnc3scc(-c4ccc(OC)c(OC)c4)c3c2=O)cc1	0	1.2	/	-5.3	-9	0.6%
Cc1cc(C)nc(NS(=O)(=O)c2ccc(Br)s2)c1	6	0.1	-2	-4.5	-2	0.7%
COc1cccc(/C=N/Nc2ncnc3scc(-c4ccccc4)c23)c1OC	8	2.5	0	1.6	14	?
Cc1cccnc1NC(=O)CNC(=O)c1cccs1	9	-0.4	6	2.5	17	11%
O=C(COC(=O)c1cc(NS(=O)(=O)c2cccs2)ccc1O)Nc1ccc(F)c(F)c1F	2	-0.8	-3	3.5	7	1.6%
COc1ccc(-c2noc(-c3cccs3)n2)cc1OC	-8	0.6	-9	-2.0	9	1.9%
